Screens as filed in PubChem.
NPYLR7 ag = activates Aedes aegypti NPYLR7 receptor; HEK293T NPYLR7/Galpha15, GCaMP6s calcium fluorescence; activation, % at 10 µM; actives 0.15% (n = 270,000); AID 1259423; in the data active = activation above about 40%;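 note: 0% = vehicle and 100% = reference agonist at the receptor; some compounds past the cut are filed as inactive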
NPYLR7 ag max-min = second read-out of NPYLR7 ag, no call of its own (marks repeat the call); activation, %; measured here: Max-Min RFU normalised activation; some inactives read as strong as hits;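 span of the calcium signal over five minutes; 0% = vehicle and 100% = native peptide agonist; compound fluorescence can raise it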
Numbers without * were called inactive; & = joins results of further samples.

A first look, 18 compounds:
Values run as follows: NPYLR7 ag	NPYLR7 ag max-min
> COc1ccc(C(C)(NC(C)=O)c2nc(-c3cccc(C(=O)O)c3)cs2)cc1 (centres undefined)
    4	-1
> CCCc1cc(=O)[nH]c(-n2nc(C)cc2NC(=O)Cc2ccc(OCC)cc2)n1
    -4	-5
> CCN(Cc1ccccc1)C(=O)CS(=O)(=O)c1ccc(C(C)C)cc1
    -5	-6
> CN(CCc1ccccn1)C(=O)CCNc1ccc(-n2ccnc2)cc1[N+](=O)[O-]
    -6	-9
> Cc1cc(=O)[nH]c(-n2nc(C)c(CCC(=O)Nc3ccon3)c2C)n1
    9	8
> Cc1ccc(NC(=O)CN2CN(c3ccccc3)C3(CCN(S(=O)(=O)c4ccc(Cl)cc4)CC3)C2=O)cc1C
    27	18
> COC(=O)c1[nH]ncc1CN1CCCN(c2ccc(F)cc2)CC1
    -3	-3
> CCCc1noc(-c2cc(C)nc3c2c(C)nn3C)n1
    6	2
> CCC/C=C/c1ccc(C(=O)NCC)cn1
    -1	-4
> O=C1C2CC=C(Cl)CC2C(=O)N1CCO (centres undefined)
    10	8
> COC(=O)Cn1c(-c2ccccc2)c[nH]c1=S
    -12	-16
> O=C(CN1CCOC(C(F)(F)F)C1)N1CCOc2ccccc21 (centres undefined)
    9	3
> CCOc1ccc(CCNC(=O)C2CCC(Cn3c(=O)[nH]c4ccsc4c3=O)CC2)cc1 (centres undefined)
    1	4
> CCc1csc(CNC(=O)c2ccc(NC3CCSC3)nc2)n1 (centres undefined)
    2	0
> Cc1ccccc1-n1nnnc1SCC(=O)NC(C)(C)C
    5	3
> O=C(c1c[nH]c(C(=O)N2CCCC2)c1)N1CCC(c2ccccc2)CC1
    -3	-4
> Cc1ccc(-n2[nH]c(-c3cccc(C)c3)c(-c3ccccc3NC(=O)CC(C)C)c2=O)cc1
    3	4
> O=C(CCCNC(=O)c1ccc(Cl)cc1)NC1CCS(=O)(=O)C1 (centres undefined)
    5	-1

Results, from the first entry:
Values run as follows: NPYLR7 ag	NPYLR7 ag max-min
> COc1ccc(C(C)(NC(C)=O)c2nc(-c3cccc(C(=O)O)c3)cs2)cc1 (centres undefined)
    4	-1
> CCCc1cc(=O)[nH]c(-n2nc(C)cc2NC(=O)Cc2ccc(OCC)cc2)n1
    -4	-5
> CCN(Cc1ccccc1)C(=O)CS(=O)(=O)c1ccc(C(C)C)cc1
    -5	-6
> CN(CCc1ccccn1)C(=O)CCNc1ccc(-n2ccnc2)cc1[N+](=O)[O-]
    -6	-9
> Cc1cc(=O)[nH]c(-n2nc(C)c(CCC(=O)Nc3ccon3)c2C)n1
    9	8
> Cc1ccc(NC(=O)CN2CN(c3ccccc3)C3(CCN(S(=O)(=O)c4ccc(Cl)cc4)CC3)C2=O)cc1C
    27	18
> COC(=O)c1[nH]ncc1CN1CCCN(c2ccc(F)cc2)CC1
    -3	-3
> CCCc1noc(-c2cc(C)nc3c2c(C)nn3C)n1
    6	2
> CCC/C=C/c1ccc(C(=O)NCC)cn1
    -1	-4
> O=C1C2CC=C(Cl)CC2C(=O)N1CCO (centres undefined)
    10	8
> COC(=O)Cn1c(-c2ccccc2)c[nH]c1=S
    -12	-16
> O=C(CN1CCOC(C(F)(F)F)C1)N1CCOc2ccccc21 (centres undefined)
    9	3
> CCOc1ccc(CCNC(=O)C2CCC(Cn3c(=O)[nH]c4ccsc4c3=O)CC2)cc1 (centres undefined)
    1	4
> CCc1csc(CNC(=O)c2ccc(NC3CCSC3)nc2)n1 (centres undefined)
    2	0
> Cc1ccccc1-n1nnnc1SCC(=O)NC(C)(C)C
    5	3
> O=C(c1c[nH]c(C(=O)N2CCCC2)c1)N1CCC(c2ccccc2)CC1
    -3	-4
> Cc1ccc(-n2[nH]c(-c3cccc(C)c3)c(-c3ccccc3NC(=O)CC(C)C)c2=O)cc1
    3	4
> O=C(CCCNC(=O)c1ccc(Cl)cc1)NC1CCS(=O)(=O)C1 (centres undefined)
    5	-1
> CCN(CC)c1ccc(CN(CCOC)C(=O)Nc2ccccc2OC)c(OS(=O)(=O)c2ccc(OC)cc2)c1
    1	13
> O=C(NC1CCCN(c2ncccn2)C1)N1CCCc2ccccc21 (centres undefined)
    -6	-6
> Cc1ccccc1C1=NOC(CN(Cc2ccccc2Cl)C(=O)c2cccs2)C1 (centres undefined)
    19	31
> COc1ccc(NC(=O)C(C2CCCC2)N2CCN(C(=O)c3ccccc3OC)CC2)cc1 (centres undefined)
    1	7
> COC(=O)Oc1c(Br)c(=O)oc2ccccc12
    -2	-2
> CCOC(=O)C(C)n1nc(CC)n2c(cc3occc32)c1=O (centres undefined)
    4	1
> O=S(=O)(c1cccs1)N(c1cccc2ccccc12)C(F)F
    -3	-5
> O=C(c1cccc(F)c1)N(Cc1cccnc1)Cc1nccn1Cc1ccc(C(F)(F)F)cc1
    5	13
> Brc1ccc(-c2nnc(CSc3nnc(NC4CC4)s3)o2)cc1
    7	12
> CC1(C)CC(=O)C2C(=Nc3cc(C(=O)c4ccccc4)ccc3NC2c2cccnc2)C1 (centres undefined)
    2	3
> COc1cccc([C@@H]2CCCN(C(=O)c3cn(-c4ccccc4)nn3)C2)c1
    3	2
> Cc1cc(C)n(-c2nc3c(c(=O)n2CC(N)=O)CCCC3)n1
    -6	-10
> CSc1ccc(CNCc2ccc3c(c2)OCO3)cc1
    -1	-3
> O=S1(=O)CCC(Nc2ncnc3sc4c(c23)CCCCC4)C1 (centres undefined)
    0	4
> NC(=O)c1ccc(NC(=O)CCNC2CCCc3ccccc32)cc1 (centres undefined)
    15	2
> COc1cccc(Cn2c(=O)c(C(=O)N3CCOCC3)nn(-c3ccc(OC)c(OC)c3)c2=O)c1
    -1	8
> O=C(O)c1ccc(-c2nccn2CC2(O)CCCCC2)cc1
    24	15
> Cc1ccc(C2C(=C(O)c3ccccc3)C(=O)C(=O)N2CCN2CCOCC2)cc1 (centres undefined)
    2	8
> CC(=O)NCCC1CCCCN1Cc1cn(C)nc1-c1cccc(Cl)c1 (centres undefined)
    4	-1
> COc1ccc(C(C2Sc3ncnn3C2=O)N2CC(C)OC(C)C2)cc1 (centres undefined)
    1	0
> CCOC(=O)c1ccc(-c2ccc(/C=C3/SC(=S)N(CC(=O)O)C3=O)o2)cc1
    -6	-9
> COc1ccc2cc(-c3[nH]ncc3CN3CCC(OCc4cccnc4)CC3)ccc2c1
    5	3
> COC(=O)c1ccc(Cn2c(C)c(C(=O)NCc3cccc([N+](=O)[O-])c3)sc2=O)o1
    7	4
> Fc1ccccc1CSCCNC1CC2CC=CC21 (centres undefined)
    5	3
> COC(=O)CC1(NC(=O)C2CC2c2ccc(F)cc2F)CCOCC1 (centres undefined)
    4	1
> O=S(=O)(c1ccc(F)cc1)N1CCN(c2ccnc3cc(Cl)ccc23)CC1
    -1	-1
> CCCCN(CC(=O)N(CCc1ccc(OC)c(OC)c1)Cc1cccs1)C(=O)Nc1ccccc1OCC
    -2	6
> Cc1nc(NCC(=O)O)c2c(C)c(C)sc2n1
    2	0
> O=C(c1csc2nc(-c3ccccc3)cn12)N1CCCC(c2ccccc2)CC1 (centres undefined)
    15	4
> CC(C)(C)NC(=O)NC(=O)Cn1ncc(Cl)c(Cl)c1=O
    3	0
> CN=c1scc(-c2ccc(F)cc2)n1N=C(C)c1ccc(O)cc1O
    -7	-17
> CS(=O)(=O)Oc1ccc(CN(Cc2ccccc2)C(=O)c2ccc(Cl)cc2)cc1
    -1	8
> CC(=O)NCCNC(=O)c1nnc2n1CCN(Cc1ccc(-c3ccccc3)cc1)C2
    3	0
> Cc1cc(C)nc(SCc2cc(=O)c(OC(=O)c3ccc(F)c(F)c3)co2)n1
    -14	-11
> COc1ccc(N2C(=O)N(CC(=O)NC3CCCC3)c3ccccc3S2(=O)=O)cc1OC
    3	5
> c1ccc(-c2cccc(Cn3cnnc3)c2)cc1
    -2	-3
> CCn1c(SCC(=O)Nc2cc(C)ccc2C)nc2c([nH]c3ccccc32)c1=O
    3	4
> N#CC1(c2ccccc2)CCN(C(=O)C2CCCCC2C(=O)N2CCc3ccccc3C2)CC1 (centres undefined)
    -6	-9
> COc1cccc(C(CN2CCN(C(=O)NCCc3ccccc3)CC2)OCc2ccc(C)cc2)c1 (centres undefined)
    6	0
> S=c1nc(C2CC2)n(-c2ccccc2)[nH]1
    -8	-15
> N=C1C=CC(=C(c2cccc(N)c2)c2cccc(N)c2)C=C1
    8&22	3&17
> CNC(=O)[C@@H]1C[C@H]2CN(Cc3ccc(OC)cc3)C(=O)c3cccc(c32)N1C(=O)c1cc(C)oc1C
    2	4

More entries follow:
Values run as follows: NPYLR7 ag	NPYLR7 ag max-min
> COCCn1c(C)cc(O)c(C(c2ccc(F)cc2)N2CCC(C)CC2)c1=O (centres undefined)
    11	4
> CC(C)CCNc1nc(C(=O)OC(C)C(N)=O)cs1 (centres undefined)
    12	6
> O=C(CC1CCc2ccccc21)NCCc1csc(-c2ncccn2)n1 (centres undefined)
    24	10
> COc1ccc(OC)c(-c2cc(C(=O)N3CCN(C4CCCCC4)CC3)n(C)n2)c1
    4	0
> O=C(Nc1nnc(C(F)(F)F)s1)C1(c2cccc(Cl)c2)CC1
    -19	-21
> COc1cc(OC)cc(C(=O)NCCN=C2NS(=O)(=O)c3ccccc32)c1
    4	1
> Cc1cc(C)c(C#N)c(Nc2cccc3ccccc23)n1
    0	-2
> CCCCSc1nnc2c(n1)OC(c1cccc([N+](=O)[O-])c1)Nc1ccccc1-2 (centres undefined)
    -8	-8
> COc1ccc(S(=O)(=O)N2CCc3ccccc3C2)cc1N1CCN(C(=O)c2ccc([N+](=O)[O-])o2)CC1
    10	4
> COC(=O)c1cccc(NS(=O)(=O)c2ccc(C)s2)c1
    2	-3
> CCn1cc(C(CC(=O)NCc2ccccn2)c2ccc(F)cc2)c2ccccc21 (centres undefined)
    27	30
> CCOC(=O)CSc1nc(-c2ccccc2)cc(-c2ccc(OC)cc2)c1C#N
    -3	-8
> O=C(CC(c1ccccc1)c1ccccc1)Oc1coc(CSc2ncccn2)cc1=O
    -23	-1
> COc1cccc(-c2ccc(NC(=O)C3CCCN(C(=O)c4ccncc4)C3)cc2)c1 (centres undefined)
    4	2
> Cc1ccccc1C(=O)NC(C(=O)N1CCCC1)C1CCN(C(=O)c2ccc(F)cc2)CC1 (centres undefined)
    21	23
> COc1cccc(CC2CN(C(=O)COc3ccccc3O)CCO2)c1 (centres undefined)
    -5	-5
> O=C(NC1CCCc2ccccc21)C(C1CCCC1)N1CCN(C(=O)c2cccc(Cl)c2)CC1 (centres undefined)
    -8	-3
> CCCN1C(=O)C(=Cc2c(NCc3ccccc3)nc3ccccn3c2=O)SC1=S
    8	6
> CC(C)OP(=O)(OC(C)C)C(=NNC(=O)c1ccccc1)NO
    -10	-14
> CC(C)c1nc(CN(C)Cc2ccsc2)cs1
    2	2
> COc1cccc(NC(=O)c2c[nH]c3c(c(C)nn3-c3ccccc3)c2=O)c1
    -3	18
> CC(C)c1cc(N2CCOCC2)nc(SCc2cccc(C(=O)N3CCCC3)c2)n1
    5	15
> Cc1cccc(-c2nc3c(NCc4ccccc4)nccc3[nH]2)c1
    -6	-8
> O=C(Nc1ccc2[nH]cc(CCN3CCc4ccccc4C3)c2c1)C(F)(F)C(F)(F)C(F)(F)F
    2	9
> O=C1NCC(=O)N2CCN(C(=O)c3cccc4c3NCCC4)CC12 (centres undefined)
    -4&-1	-4&-2
> O=c1oc2ccc(Br)cc2cc1-c1nnc(-c2ccccc2)o1
    -5	-8
> Cc1nc2c(C)cccn2c(=O)c1NC(=O)Nc1ccc(F)cc1F
    -1	-1
> C=CCOCC(O)CN(Cc1ccsc1)CC1CCCO1 (centres undefined)
    -1	3
> CN(CCC1CCCCO1)C(=O)c1ccc2c(c1)OCCO2 (centres undefined)
    6	4
> CCc1nnc(C(C)Sc2ccncc2)o1 (centres undefined)
    -1	-4
> CCOC(=O)C1=C(O)/C(=C\c2cccc(OC)c2OC)SC1=Nc1ccc([N+](=O)[O-])cc1
    5	2
> CC(C)C(=O)NC1CCN(C(=O)c2csc(Br)c2)CC1
    5	5
> COC(=O)c1ccccc1N/C=C(\C#N)c1nc2ccccc2n1C
    -1	-7
> CCC(C)Cc1c(C)sc2nc(CSc3nnc4n3CCCCC4)[nH]c(=O)c12 (centres undefined)
    4	7
> Cc1ccccc1CO[C@]1(C(=O)NCC2CCCO2)CC(OCc2c(F)cccc2F)[C@H](O)[C@H](O)C1 (some centres undefined)
    6	9
> O=C(CC(NCCO)C(=O)O)Nc1ccc2ccccc2c1 (centres undefined)
    1	-1
> CCOCCn1c(N2CCN(c3ccccc3)CC2)nc2c1c(=O)[nH]c(=O)n2C
    -4	8
> Cc1nnc(SCC(=O)c2c(N)n(C3CC3)c(=O)[nH]c2=O)n1C
    6	9
> O=S(=O)(NCc1ccco1)c1ccc(Cl)cc1Cl
    1	3
> N#CCCCSc1nc2ccccc2c(=O)n1CC1CCCO1 (centres undefined)
    7	11
> N#C/C(=C\c1cn(Cc2ccc(Cl)cc2)c2ccccc12)c1nn(CCO)c(N)c1C#N
    3	3
> Oc1cccc(-c2csc(Nc3cccc(F)c3)n2)c1
    6	5
> CC(Nc1ncnc2c1cnn2C)c1ccc(S(C)(=O)=O)cc1 (centres undefined)
    -3	-6
> Cc1ccc(-n2c(=O)[nH]c3c(C(=O)Nc4ccc(C)cc4C)cn(C)c3c2=O)cc1
    9	8
> CC(C)c1noc(C2CCCN2Cc2cc(C(C)(C)C)n[nH]2)n1 (centres undefined)
    2	3
> COc1ccc(CC(=O)NCC2Cc3cc(F)ccc3O2)cc1 (centres undefined)
    9	21
> O=C(Nc1nccs1)c1cn(Cc2ccccc2)nc1OCc1ccccc1
    13	3
> CC(C)c1ccc(C(=O)N2CCN(C)C(c3ccccc3)C2)c(=O)[nH]1 (centres undefined)
    17	13

Compound profiles, as listed above. Order of screens: NPYLR7 ag | NPYLR7 ag max-min
`Oc1cccc(-c2csc(Nc3cccc(F)c3)n2)c1` across the screens: 6 | 5
`CCC(C)Cc1c(C)sc2nc(CSc3nnc4n3CCCCC4)[nH]c(=O)c12` (centres undefined) across the screens: 4 | 7

This is a subset; count on the stated rates, not on these rows.
